Vaccinia stage – blocks a specific stage of Vaccinia orthopoxvirus infection, primary screen, cell-based, single point. Vaccinia-infected cells, mCherry/Venus stage reporter fluorescence; active compounds read low; some inactives read as strong as hits. activity change (mCherry), % (concentration not given with the values). hit rate 0.01% among 89,000;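 active = mCherry past -33% and 40 or more points under the early reporter, replicates agreeing; inconclusive = past -33% without that gap or agreement; tested in A549 cells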;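 also: scaled between vehicle wells and reference inhibitor wells; 23 nL library stock went into each well; one replicate is shown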
Vaccinia stage Venus – second read-out of Vaccinia stage, no call of its own (marks repeat the call); activity change (Venus), %; measured here: Venus reporter, other viral stage;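 negative = less Venus signal; first of two replicates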
Numbers without * were called inactive; & = joins results of further samples. An excerpt, so the mix of outcomes need not match the whole.

COc1ccc(S(=O)(=O)N(C)C[C@H]2OCc3cnnn3CCCC(=O)N([C@H](C)CO)C[C@@H]2C)cc1 was read as Vaccinia stage -3&12 and Vaccinia stage Venus 4&6.
`C[C@H]1CN([C@@H](C)CO)C(=O)c2cc(NC(=O)CCN3CCOCC3)ccc2O[C@H]1CN(C)Cc1ccncc1` gave Vaccinia stage 16 and Vaccinia stage Venus 1.
`C[C@@H]1CN([C@H](C)CO)C(=O)Cc2cc(NC(=O)c3ccncc3)ccc2O[C@H]1CN(C)Cc1ccc(-c2ccccc2)cc1` gave Vaccinia stage -3 and Vaccinia stage Venus -3.
Screening O=C(C[C@@H]1CC[C@H]2[C@@H](COC[C@@H](O)CN2CC2CCOCC2)O1)NCC1CC1 returned Vaccinia stage 7 and Vaccinia stage Venus 11.
C/C=C/c1ccc([C@H]2[C@H](CO)N3CCCCN(S(=O)(=O)c4ccc(F)cc4)C[C@@H]23)cc1 was read as Vaccinia stage inconclusive.
O=C(Cc1ccccc1)N[C@@H]1CC[C@H](CC(=O)N2CCOCC2)O[C@H]1CO was read as Vaccinia stage -5 and Vaccinia stage Venus -5.
`COc1ccc(NC(=O)N(C)C[C@H]2Oc3ccc(NC(=O)NC(C)C)cc3C(=O)N([C@H](C)CO)C[C@H]2C)cc1` gave Vaccinia stage 9 and Vaccinia stage Venus -1.
Screening CCS(=O)(=O)N1CCC2(CC1)CN(Cc1ccccc1OC)[C@H](CO)c1c2c2ccc(OC)cc2n1C returned Vaccinia stage -9 and Vaccinia stage Venus 0.
For CC(=O)N1CC(=O)N2[C@H](C1)[C@@H](c1ccc(-c3ccc(C)cc3)cc1)[C@@H]2CO the results were Vaccinia stage 8 and Vaccinia stage Venus -10.
C[C@@H]1CN([C@H](C)CO)C(=O)c2cc(C#CC3CCCC3)cnc2O[C@H]1CN(C)C(=O)C1CCCCC1 was read as Vaccinia stage inconclusive.

Reprinted from the part before: 3 entries; new compounds follow.
Screening CCS(=O)(=O)N1CCC2(CC1)CN(Cc1ccccc1OC)[C@H](CO)c1c2c2ccc(OC)cc2n1C returned Vaccinia stage -9 and Vaccinia stage Venus 0.
For CC(=O)N1CC(=O)N2[C@H](C1)[C@@H](c1ccc(-c3ccc(C)cc3)cc1)[C@@H]2CO the results were Vaccinia stage 8 and Vaccinia stage Venus -10.
C[C@@H]1CN([C@H](C)CO)C(=O)c2cc(C#CC3CCCC3)cnc2O[C@H]1CN(C)C(=O)C1CCCCC1 was read as Vaccinia stage inconclusive.
C[C@@H]1CN([C@@H](C)CO)S(=O)(=O)c2ccc(C#CC3CC3)cc2O[C@H]1CN(C)Cc1ccccc1 was read as Vaccinia stage inconclusive.
For COc1ccc(S(=O)(=O)Nc2ccc3c(c2)C(=O)N([C@@H](C)CO)C[C@H](C)[C@@H](CN(C)Cc2ccc(C(=O)O)cc2)OCCCC[C@H](C)O3)cc1 the results were Vaccinia stage 35 and Vaccinia stage Venus 10.
C[C@H](CO)N1C[C@H](C)[C@@H](CN(C)C(=O)CN(C)C)Oc2cc(C#Cc3ccccc3)ccc2S1(=O)=O was read as Vaccinia stage inconclusive.
`C[C@@H]1CN([C@@H](C)CO)C(=O)c2cc(NC(=O)CCN3CCOCC3)ccc2O[C@H]1CN(C)S(=O)(=O)c1ccc(F)cc1` gave Vaccinia stage -10 and Vaccinia stage Venus -22.
O=C(C[C@@H]1CC[C@H](NC(=O)c2cccc(F)c2)[C@@H](CO)O1)Nc1nccs1 was read as Vaccinia stage 2 and Vaccinia stage Venus 9.
For O=S(=O)(N[C@H]1CC[C@@H](CCn2cc(-c3cccnc3)nn2)O[C@H]1CO)c1ccccc1 the results were Vaccinia stage 7 and Vaccinia stage Venus 5.
`C[C@@H]1CN([C@H](C)CO)C(=O)c2cc(-c3ccccc3F)cnc2O[C@@H]1CN(C)C(=O)C1CCCCC1` gave Vaccinia stage 6 and Vaccinia stage Venus 4.
Screening C[C@@H]1CN([C@H](C)CO)C(=O)c2cc(C3=CCCC3)cnc2O[C@@H]1CN(C)C(=O)Nc1cccc(F)c1 returned Vaccinia stage -20 and Vaccinia stage Venus -13.
`C[C@@H]1CN([C@H](C)CO)S(=O)(=O)c2ccc(-c3cccnc3)cc2O[C@@H]1CN(C)CC1CCOCC1` gave Vaccinia stage 6 and Vaccinia stage Venus 8.
`CN1C(=O)c2cc(NC(=O)C3CCOCC3)ccc2OC[C@H]2O[C@@H](CC(=O)NCC3CC3)CC[C@@H]21` gave Vaccinia stage 10 and Vaccinia stage Venus 3.
Screening C[C@H](CO)N1C[C@H](C)[C@H](CN(C)Cc2ccc(Oc3ccccc3)cc2)Oc2ccc(NC(=O)Nc3cccc4ccccc34)cc2C1=O returned Vaccinia stage -22 and Vaccinia stage Venus -9.
Screening O=C(C[C@@H]1C[C@H]2c3cc(NC(=O)c4ccc5c(c4)OCO5)ccc3O[C@H]2[C@@H](CO)O1)NCc1ccccn1 returned Vaccinia stage 9 and Vaccinia stage Venus 13.
C[C@@H]1CN([C@@H](C)CO)C(=O)c2c(c3ccccc3n2C)-c2ccccc2CO[C@@H]1CN(C)S(C)(=O)=O was read as Vaccinia stage 18 and Vaccinia stage Venus 20.
C[C@H](CO)N1C[C@H](C)[C@@H](CN(C)S(=O)(=O)c2ccccc2)Oc2ccc(NC(=O)c3ccncc3)cc2C1=O was read as Vaccinia stage 6 and Vaccinia stage Venus -2.
Screening C[C@@H]1CN([C@H](C)CO)C(=O)Cc2cc(NC(=O)Cc3cn(C)c4ccccc34)ccc2O[C@H]1CN(C)C(=O)NC1CCCCC1 returned Vaccinia stage 5 and Vaccinia stage Venus 4.
`COc1ccc(S(=O)(=O)N(C)C[C@H]2Oc3c(NC(=O)C4CCOCC4)cccc3C(=O)N([C@H](C)CO)C[C@H]2C)cc1` gave Vaccinia stage 20 and Vaccinia stage Venus 14.
COc1ccc(CN(C)C[C@H]2OCCCC[C@H](C)Oc3ccc(NC(=O)Nc4ccc(OC)cc4)cc3C(=O)N([C@H](C)CO)C[C@H]2C)cc1 was read as Vaccinia stage inconclusive.
For COc1cccc(-c2cnc3c(c2)C(=O)N([C@@H](C)CO)C[C@@H](C)[C@@H](CN(C)Cc2ccccc2)O3)c1 the results were Vaccinia stage -25 and Vaccinia stage Venus -13.
For Cc1cccc(-c2ccc([C@H]3[C@@H](CO)N4CCCCN(C(=O)c5ccncc5)C[C@H]34)cc2)c1 the results were Vaccinia stage -6 and Vaccinia stage Venus -12.
`C[C@@H]1CN([C@@H](C)CO)C(=O)c2cccc(NC(=O)Nc3ccccc3)c2O[C@@H]1CN(C)S(=O)(=O)c1cn(C)cn1` gave Vaccinia stage -4 and Vaccinia stage Venus 2.
O=C(C1CCOCC1)N1[C@H](CO)[C@H]2c3ccccc3NC[C@H]21 was read as Vaccinia stage 18 and Vaccinia stage Venus 20.
O=C(NC1CCCC1)[C@@H]1N[C@@H]2c3ccc(-c4cccc(F)c4)c(=O)n3C[C@@H]2[C@H]1CO was read as Vaccinia stage -4 and Vaccinia stage Venus -2.
`O=C(C[C@H]1CC[C@@H]2[C@H](COC[C@H](O)CN2Cc2ccncc2)O1)NCc1ccccc1Cl` gave Vaccinia stage 2 and Vaccinia stage Venus 6.
For C[C@H]1CCCCO[C@H](CN(C)C(=O)c2ccncc2)[C@@H](C)CN([C@@H](C)CO)C(=O)c2cc(NS(=O)(=O)c3ccccc3)ccc2O1 the results were Vaccinia stage 31 and Vaccinia stage Venus 16.
For CCCNC(=O)N(C)C[C@@H]1Oc2ncc(C#C[C@@H](C)O)cc2C(=O)N([C@H](C)CO)C[C@@H]1C the results were Vaccinia stage 17 and Vaccinia stage Venus 10.
C[C@@H]1CN([C@@H](C)CO)C(=O)c2cc(NS(=O)(=O)c3ccc(Cl)cc3)ccc2O[C@H]1CN(C)CC1CCCCC1 was read as Vaccinia stage -5 and Vaccinia stage Venus -12.
For C[C@H](CO)N1C[C@H](C)[C@@H](CN(C)Cc2ccc(C(F)(F)F)cc2)OCCCC[C@H](C)Oc2ccc(NC(=O)NC3CCCCC3)cc2C1=O the results were Vaccinia stage -12 and Vaccinia stage Venus 0.
`O=C(CC(F)(F)F)N1C[C@H]2[C@@H](c3ccccc31)[C@H](CO)N2C(=O)Cc1cccnc1` gave Vaccinia stage 10 and Vaccinia stage Venus 13.
For COC(=O)C[C@H]1CC[C@@H]2[C@H](COc3ccc(NC(=O)Cc4cccs4)cc3C(=O)N2C)O1 the results were Vaccinia stage 11 and Vaccinia stage Venus 12.
For O=C(C[C@@H]1CC[C@H]2[C@@H](COC[C@@H](O)CN2C(=O)c2cnccn2)O1)N1CCN(c2ccccc2)CC1 the results were Vaccinia stage -3 and Vaccinia stage Venus 0.

Sorted by SMILES length (low to high): 7 of the compounds above
O=C(C1CCOCC1)N1[C@H](CO)[C@H]2c3ccccc3NC[C@H]21 was read as Vaccinia stage 18 and Vaccinia stage Venus 20.
`O=C(C[C@H]1CC[C@@H]2[C@H](COC[C@H](O)CN2Cc2ccncc2)O1)NCc1ccccc1Cl` gave Vaccinia stage 2 and Vaccinia stage Venus 6.
O=C(NC1CCCC1)[C@@H]1N[C@@H]2c3ccc(-c4cccc(F)c4)c(=O)n3C[C@@H]2[C@H]1CO was read as Vaccinia stage -4 and Vaccinia stage Venus -2.
For CCCNC(=O)N(C)C[C@@H]1Oc2ncc(C#C[C@@H](C)O)cc2C(=O)N([C@H](C)CO)C[C@@H]1C the results were Vaccinia stage 17 and Vaccinia stage Venus 10.
For O=C(C[C@@H]1CC[C@H]2[C@@H](COC[C@@H](O)CN2C(=O)c2cnccn2)O1)N1CCN(c2ccccc2)CC1 the results were Vaccinia stage -3 and Vaccinia stage Venus 0.
C[C@@H]1CN([C@@H](C)CO)C(=O)c2cc(NS(=O)(=O)c3ccc(Cl)cc3)ccc2O[C@H]1CN(C)CC1CCCCC1 was read as Vaccinia stage -5 and Vaccinia stage Venus -12.
For C[C@H](CO)N1C[C@H](C)[C@@H](CN(C)Cc2ccc(C(F)(F)F)cc2)OCCCC[C@H](C)Oc2ccc(NC(=O)NC3CCCCC3)cc2C1=O the results were Vaccinia stage -12 and Vaccinia stage Venus 0.

Continuation.
For COc1ccc(NC(=O)Nc2ccc3c(c2)C(=O)N([C@H](C)CO)C[C@@H](C)[C@H](CN(C)S(C)(=O)=O)OCCCC[C@@H](C)O3)cc1 the results were Vaccinia stage 9 and Vaccinia stage Venus -3.
CCCNC(=O)N(C)C[C@@H]1Oc2ncc(C#CCc3ccccc3)cc2C(=O)N([C@@H](C)CO)C[C@@H]1C was read as Vaccinia stage 22 and Vaccinia stage Venus 21.
CN1c2ccc(-c3cccc(C#N)c3)cc2[C@H]2[C@H](CCN2C(=O)CN2CCOCC2)[C@H]1CO was read as Vaccinia stage 7 and Vaccinia stage Venus 6.
Screening C[C@H](CO)N1C[C@H](C)[C@H](CN(C)S(=O)(=O)c2ccccc2)Oc2c(NC(=O)Nc3cccc4ccccc34)cccc2C1=O returned Vaccinia stage -14 and Vaccinia stage Venus -12.
Screening C[C@H]1CN([C@@H](C)CO)C(=O)Cc2cc(NC(=O)CCCN(C)C)ccc2O[C@@H]1CN(C)C(=O)NC1CCCCC1 returned Vaccinia stage 9 and Vaccinia stage Venus 7.
Screening Cc1ccccc1-c1ccc([C@@H]2[C@H]3CN(C(=O)c4ccncc4)CC(=O)N3[C@H]2CO)cc1 returned Vaccinia stage -8 and Vaccinia stage Venus -1.
`COCC(=O)N1C[C@@H](C)[C@@H](OC)CN(C)C(=O)c2ccc(NC(=O)c3cc(C)on3)cc2OC[C@@H]1C` gave Vaccinia stage 8 and Vaccinia stage Venus 1.
Screening CCC(=O)Nc1ccc2c(c1)C(=O)N(C)[C@H]1CC[C@@H](CC(=O)NCc3ccc(OC)cc3)O[C@H]1CO2 returned Vaccinia stage 5 and Vaccinia stage Venus 10.
`CO[C@@H]1CN(C)C(=O)c2ccc(NC(=O)NC(C)C)cc2OC[C@@H](C)N(CCC(F)(F)F)C[C@H]1C` gave Vaccinia stage 12 and Vaccinia stage Venus 7.
Screening COCC(=O)Nc1ccc2c(c1)C(=O)N(C)C[C@@H](OC)[C@H](C)CN(C(=O)c1ccccc1F)[C@H](C)CO2 returned Vaccinia stage 22 and Vaccinia stage Venus 18.
CC(C)C#Cc1ccc2c(c1)O[C@H](CN(C)Cc1ccccn1)[C@@H](C)CN([C@H](C)CO)S2(=O)=O was read as Vaccinia stage inconclusive.
Screening Cc1ccc(-c2cnc3c(c2)C(=O)N([C@@H](C)CO)C[C@H](C)[C@@H](CN(C)C(=O)CN(C)C)O3)cc1 returned Vaccinia stage 6 and Vaccinia stage Venus 3.
For CCCNC(=O)C[C@H]1CC[C@@H]2[C@@H](COc3ccc(NC(=O)C4CCOCC4)cc3C(=O)N2C)O1 the results were Vaccinia stage 12 and Vaccinia stage Venus 14.
C[C@@H]1CCCCO[C@@H](CN(C)CC2CCCCC2)[C@@H](C)CN([C@H](C)CO)C(=O)c2cc(NC(=O)Nc3ccc(F)cc3)ccc2O1 was read as Vaccinia stage -27 and Vaccinia stage Venus -22.
`COc1ccc(S(=O)(=O)N(C)C[C@@H]2Oc3c(NC(=O)c4ccc(-c5nccs5)cc4)cccc3C(=O)N([C@H](C)CO)C[C@H]2C)cc1` gave Vaccinia stage 10 and Vaccinia stage Venus 13.
C[C@H](CO)N1C[C@H](C)[C@H](CN(C)S(=O)(=O)c2cccc(F)c2)Oc2ncc(C#CC3CCCCC3)cc2C1=O was read as Vaccinia stage -7 and Vaccinia stage Venus -11.
O=C(C[C@@H]1C[C@H]2c3cc(NC(=O)Nc4ccccc4)ccc3O[C@H]2[C@@H](CO)O1)NCc1cccc(F)c1 was read as Vaccinia stage 14 and Vaccinia stage Venus 8.
Screening C[C@@H]1CN([C@H](C)CO)C(=O)c2cc(-c3cncnc3)cnc2O[C@@H]1CN(C)Cc1ccccc1 returned Vaccinia stage -1 and Vaccinia stage Venus -2.
Screening O=C(C1CCC1)N1CCCCN2[C@H](CO)[C@@H](c3ccc(-c4cccc(F)c4)cc3)[C@@H]2C1 returned Vaccinia stage -22 and Vaccinia stage Venus -26.
